D2 potentiator = positive allosteric modulators of human D2 dopamine receptor | potentiation, % (no concentration beside the values) | DiscoveRx D2 beta-arrestin cells, luminescence, 90 min; 100% = 57 uM dopamine signal | P14416 | actives 0.23% (n = 360,000) | AID 624464; active = potentiation of 50% or more; inconclusive = 30% to 50%; inactive = 30% or less;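 note: compound concentration not given in the record; tested on top of an EC20 dose of dopamine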
Target sequence (P14416 whole entry, looked up): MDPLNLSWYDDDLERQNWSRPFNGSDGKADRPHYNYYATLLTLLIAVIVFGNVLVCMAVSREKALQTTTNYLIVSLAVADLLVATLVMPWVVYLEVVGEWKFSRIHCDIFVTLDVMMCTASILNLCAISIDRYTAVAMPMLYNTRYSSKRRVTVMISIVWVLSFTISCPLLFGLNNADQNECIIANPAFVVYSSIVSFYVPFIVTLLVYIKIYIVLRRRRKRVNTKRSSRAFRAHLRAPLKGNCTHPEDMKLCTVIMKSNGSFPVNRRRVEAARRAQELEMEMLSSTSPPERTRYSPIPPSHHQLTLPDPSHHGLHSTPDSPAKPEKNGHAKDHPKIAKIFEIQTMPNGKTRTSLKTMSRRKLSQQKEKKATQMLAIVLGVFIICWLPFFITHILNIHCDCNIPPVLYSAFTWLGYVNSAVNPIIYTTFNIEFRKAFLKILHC
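PathHunter D2 cells, attached overnight at 37 deg C, received compound in DMSO plus dopamine at EC20 (50 nM final) for 90 min at 37 deg C. Beta-arrestin recruitment was read as luminescence after 1 h with detection reagent at ambient temperature.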
gsp agonist = activates gsp, the McCune-Albright syndrome mutation. gsp mutant cells, cAMP HTRF, 30 min; control for the full effect not named in the record. actives 0.13% (n = 340,000). Potency, µM (top dose mostly 76.9 µM), without a hit: top-dose activation (cAMP increase), actives largely listed as activators; active = well fitted activation curve with a large enough effect; inconclusive = small, poorly fitted or top-dose-only effect, or another doubt; inactive = no such curve, though single readings can be large or run the other way; cell line not stated here;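 note: phosphodiesterase inhibitor Ro 20-1724 added with compounds to block cAMP breakdown; potency is the fitted concentration of half-maximal effect; nearly all actives have a fitted effect of over 60% in size; about a fifth of the inactives were tested at one dose only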
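Cells stably selected in G418 were plated at 2000/well, grown 16-24 hr, then given compounds in DMSO with the PDE inhibitor […] (300 uM solution added) for 30 min at 37C; cAMP was read by HTRF.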
D2 agonist = agonists of human D2 dopamine receptor (beta-arrestin) | P14416 | DiscoveRx PathHunter D2 beta-arrestin, luminescence, 90 min; 100% = 57 uM dopamine signal | activation, % (test concentration not listed) | actives 0.084% (n = 360,000) | AID 624465; in the data active = activation above about 40%; inconclusive = about 15% to 40%; inactive = below about 15%; note: compound concentration not given in the record; the text of the record calls up to 30% inactive
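Agonist mode: compounds alone added to overnight-plated D2 PathHunter cells for 90 min at 37 C, with 57 uM final dopamine (EC100) defining full response. Beta-arrestin recruitment detected by chemiluminescent reagent, read after 1 h at ambient temperature.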
gsp antag = gsp mutant antagonism | AID 624288 | actives 0.4% (n = 340,000) | Potency, µM (doses to about 76.9 µM), for the others: at the top dose activity change, negative = inhibition, most hits filed as inhibitors | gsp-mutant cells, cAMP HTRF, 30 min; control for the full effect not named in the record; active = falling curve of any shape with a large fitted effect; inconclusive = falling curve, mostly with a smaller effect; inactive = flat or rising curve; cell line not stated here;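 note: intracellular cAMP measured with PDE inhibitor Ro 20-1724 present during compound exposure; potency is the fitted concentration of half-maximal effect; % is set by controls: 0 for no effect and ±100 for the full control effect; nearly all actives have a fitted effect of over 65% in size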
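G418-selected cells were plated in DMEM/10% FBS for 16-24 h at 37C, then treated with compounds plus the PDE inhibitor […] (300 uM solution added) for 30 min at 37C. Intracellular cAMP was measured by HTRF after 30 min lysis at room temperature.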
CtBP-E1A blk = blocks the CtBP interaction with E1A | AID 651724 | activity change, % (concentration not given with the values) | actives 0.49% (n = 340,000) | AlphaScreen GST-E1A/His-CtBP binding, 1536-well; hits give low values; control for the full effect not named in the record; in the data active means activity change below about -65%; inconclusive means about -30% to -65%; inactive means above about -30%; note: % is set by controls: 0 for no effect and ±100 for the full control effect
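Homogeneous bead-based format: GST-tagged E1A captured on glutathione donor beads, His-tagged CtBP on nickel acceptor beads; compounds precede bead addition by 2 h at 37 °C.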
Six1-Eya2 blk = Six1/Eya2 interaction inhibition; Q15475+O00167; AlphaScreen GST-Six1/His-Eya2 binding, biochemical; hits give low values; control for the full effect not named in the record; activity change, % (concentration not given with the values); actives 0.56% (n = 360,000); in the data active = activity change below about -65%; inconclusive = about -30% to -65%; inactive = above about -30%; note: % is set by controls: 0 for no effect and ±100 for the full control effect
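Homogeneous AlphaScreen proximity assay pairing GST-Six1 with His-tagged Eya2 (added as 5X mix: 250 nM and 500 nM) in 50 mM Tris pH 8.0, 300 mM NaCl, 1 mM TCEP. Glutathione donor and nickel acceptor beads; 1 h, 37 °C, dark.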
* = called active by the depositor; ? = inconclusive; / = no result given; [ ] = dose if it differs, or a comment.

SMILES	D2 potentiator	gsp agonist	D2 agonist	gsp antag	CtBP-E1A blk	Six1-Eya2 blk
COc1ccc(C(=O)Nc2ccc(S(=O)(=O)N3CCc4ccccc43)cc2)cc1	-2	11%	-0.5	-27%	3	-3
Cc1cccc(C(=O)N(Cc2nc3ccccc3c(=O)[nH]2)C2CCCC2)c1	-6	8%[15.4 µM]	-1.2	-8%	0	2
Cn1[nH]c(C(F)(F)F)cc1=O	1	3%	-8.7	6%	/	-3
Cn1c(N)c(C(=O)COC(=O)c2ncc(Cl)c(Cl)c2Cl)c(=O)n(C)c1=O	-6	-2%[15.4 µM]	-3.5	7%	3	-13
CN(C)c1nc(Nc2ccc(F)cc2)nc(Oc2ccc(F)cc2)n1	-3	-33%	8.6	-14%	/	-4
CCCn1c(NC(=O)c2ccc(F)cc2)nc2ccccc21	0	11%[15.4 µM]	-5.2	-10%	2	-1
COc1ccc(S(=O)(=O)N(C)C[C@H]2Oc3c(NC(=O)c4ccncc4)cccc3C(=O)N([C@H](C)CO)C[C@@H]2C)cc1	-2	13%	0.6	3%	-1	-3
CCOC(=O)c1cnc(SCC(=O)Nc2ccc(NC(C)=O)c(OC)c2)nc1N	-11	3%	-1.7	4%	-7	0
CN(CCNC(=O)c1cc2c(-c3ccccc3F)nn(C)c2s1)C1CCCCC1	-10	0%	-2.5	4%	/	-22
Cc1ccc(-n2c(N)c(C(=O)N3CCOCC3)sc2=S)c(C)c1	1	-26%	-0.7	5%	-13	-5
Cc1ccccc1NC(=O)COC(=O)Cc1ccsc1	0	?	-7.0	16%	3	4
CCOC(=O)C1CCN(C(=O)CN(c2ccc(Oc3ccccc3)cc2)S(C)(=O)=O)CC1	-6	0%[15.4 µM]	-6.6	4%	-2	6
O=C(CN1C(=O)CCC1=O)Nc1cccc(NC(=O)CN2C(=O)CCC2=O)c1	-9	-55%[inhibitor]	-0.6	1%	7	2
O=C(CC[C@H]1O[C@@H](n2cnc3c(NC(=O)c4ccccc4)ncnc32)[C@H](O)[C@@H]1O)NCc1ccc(OC(F)(F)F)cc1	-5	/	3.6	/	-12	9
COc1ccc(Cn2nc(-c3ccccc3)c(N3CCCCC3)cc2=O)cc1	-1	-1%[15.4 µM]	0.0	2%	-11	-16
COC(=O)c1ccc(C2c3[nH]c4ccccc4c3C[C@H]3C(=O)N(C4CC4)CC(=O)N23)cc1 (stereo partly drawn)	8	1%	8.7	-13%	3	0
O=C(NCCCO)c1ccc2[nH]c3ccccc3c2c1	-2	7%	-2.1	0%	-1	-5
O=C(COC(=O)c1cc[n+]([O-])cc1)Nc1ccc([N+](=O)[O-])cc1C(F)(F)F	22	1%[15.4 µM]	4.3	-4%	6	-6
O=C(CSC(=S)N1CCCC1)NCC(=O)Nc1ccc(F)c(F)c1	-9	1%	-1.5	-2%	-2	5
COc1ccc(C(=O)NCC(c2ccc(F)cc2)N2CCOCC2)cc1S(=O)(=O)N1CCCC1 (stereo not drawn)	8	18%	-4.8	-10%	4	-1
O=C(Nc1ccc(Cl)cc1)N(C1=NCCC1)c1ccc(OC(F)F)cc1	-16	-4%	-0.9	-12%	8	0
O=C(NCc1ccc(Cl)cc1)c1cc(-c2ccco2)on1	-12	?	-2.5	8%	4	9
CC(=O)c1cccc(NC(=O)CCC(=O)Oc2ccc(C)cc2)c1	-4	21%	-2.4	22%	4	2
O=C(CN(c1ccc(F)cc1)S(=O)(=O)c1ccc2c(c1)OCCO2)NCC1CCCO1 (stereo not drawn)	4	-44%	-1.5	-17%	-9	-12
Cc1ccc(Nc2nnc(-c3ccncc3)s2)c(Br)c1	-11	-18%	-3.2	6%	6	-21

Next part.
SMILES	D2 potentiator	gsp agonist	D2 agonist	gsp antag	CtBP-E1A blk	Six1-Eya2 blk
Cc1ccccc1CS(=O)(=O)c1nnc([C@H](CC(C)C)NC(=O)OC(C)(C)C)o1	-11	2%	-3.5	14%	-2	-9
CCOC(=O)C1=NOC(CNc2ncc(C(F)(F)F)cc2Cl)C1 (stereo not drawn)	-3	-6%[15.4 µM]	-5.1	-5%	0	4
COc1cccc(N2CCN(C(=O)C3C4C=CC5(CN(Cc6ccccc6Cl)C(=O)C35)O4)CC2)c1 (stereo not drawn)	1	6%	8.3	3%	6	2
CCOC(=O)c1sc2nc(C)nc(N3CCCCC3C)c2c1C (stereo not drawn)	2	15%[15.4 µM]	3.1	-7%	-17	6
Cc1cc(/C=N/NC(=O)c2ccccc2F)c(C)n1-c1ccccc1	-5	?	-2.9	10%	-11	-13
COc1cc(-c2noc(CCCC(=O)Nc3ccc(C(N)=O)cc3)n2)cc(OC)c1OC	6	?	-7.3	8%	-2	1
O=C(c1cccc(S(=O)(=O)N2CCc3ccccc32)c1)N1CCN(CCO)CC1	-8	-9%	-1.6	-2%	5	-4
CCOc1cc(C(F)(F)F)cnc1/C(N)=N/O	-3	-1%	-3.7	6%	-7	-8
O=C(Nc1cccc(Br)c1)c1ccc(CSc2ccccc2)cc1	-2	-9%	1.7	-1%	27	28
CC(=O)N1N=C(c2ccccc2)CC1c1ccccc1[N+](=O)[O-] (stereo not drawn)	18	-12%	3.1	-22%	0	9
N#Cc1ccc(-c2ccc(OCC(=O)Nc3cccnc3)cc2)cc1	16	-8%	4.1	?	-2	6
CCOc1ccc(-c2nnc3sc(COc4ccc(C)cc4)nn23)cc1	-2	-7%	-4.6	6%	9	6
Cc1nnc(SCC(=O)NC2CCCCC2)[nH]c1=O	-3	2%	-5.0	5%	0	2
CCOc1ccc(-c2n[nH]c(=S)n2Cc2ccccc2)cc1	-11	-13%	5.6	-10%	/	4
O=C(c1ccc([N+](=O)[O-])cc1)N1CCN(C(=O)c2ccco2)CC1	-1	1%[15.4 µM]	-1.9	13%	7	12
Cc1c(Cl)cnc(NC(=O)COC(=O)CCc2nc3ccccc3s2)c1Cl	-1	0%	-0.8	?	-2	0
COc1cc(/C=N/NC(=O)c2cccnc2)cc(Br)c1O	-22	-4%	-5.0	?	/	4
CCCS(=O)(=O)NC(=O)C1(C)CCCN(C(=O)c2oc3ccccc3c2C)C1 (stereo not drawn)	-3	/	-4.1	/	7	4
O=C(CNC(=O)c1ccc(F)cc1)N/N=C/c1cc(Br)ccc1OC(=O)/C=C/c1ccco1	-6	-3%	-6.6	7%	?	-23
O=C(OCC(=O)N(CCc1ccccc1)Cc1ccccc1)c1ccccc1NCCO	-1	-8%	3.1	-18%	15	9
COC(=O)c1ccccc1Oc1cc(C(F)(F)F)nc(-c2ccccn2)n1	-9	-20%[15.4 µM]	3.4	2%	-12	-7
COc1ccc(C2CC(c3ccccc3)=NN2c2ccc(S(N)(=O)=O)cc2)cc1 (stereo not drawn)	-4	4%[15.4 µM]	1.2	/	-9	46
O=C(NCC(c1cccs1)N1CCOCC1)c1ccccc1NS(=O)(=O)c1cccc([N+](=O)[O-])c1 (stereo not drawn)	4	13%[15.4 µM]	-4.5	?	1	13
O=C(OCc1ccc(O)cc1)c1c(-c2ccsc2)oc2ccc(N3CCOCC3)cc12	-12	?	-2.0	-20%	5	-1
Cc1ccccc1-n1c(=O)c2ccccc2n2c(=O)[nH]nc12	1	11%	-1.9	13%	-1	3

Record cards, from the list above. Order of values: D2 potentiator | gsp agonist | D2 agonist | gsp antag | CtBP-E1A blk | Six1-Eya2 blk
CCCS(=O)(=O)NC(=O)C1(C)CCCN(C(=O)c2oc3ccccc3c2C)C1 (stereo not drawn) reads -3 | / | -4.1 | / | 7 | 4
O=C(c1cccc(S(=O)(=O)N2CCc3ccccc32)c1)N1CCN(CCO)CC1 reads -8 | -9% | -1.6 | -2% | 5 | -4
COc1ccc(C2CC(c3ccccc3)=NN2c2ccc(S(N)(=O)=O)cc2)cc1 (stereo not drawn) reads -4 | 4%[15.4 µM] | 1.2 | / | -9 | 46
O=C(OCc1ccc(O)cc1)c1c(-c2ccsc2)oc2ccc(N3CCOCC3)cc12 reads -12 | ? | -2.0 | -20% | 5 | -1

(further entries)
SMILES	D2 potentiator	gsp agonist	D2 agonist	gsp antag	CtBP-E1A blk	Six1-Eya2 blk
COc1cccc(NC(=O)CN(C)C(=O)c2ccc(NC(=O)CC3SC(N4CCCCC4)=NC3=O)cc2)c1 (stereo not drawn)	14	-32%	-0.5	14%	5	-2
COc1cc(NC(=O)CNC(=O)Cn2c(C)cc3ccccc3c2=O)cc(OC)c1OC	4	-5%	5.1	-7%	5	-5
O=C(CN1CCN(Cc2ccccc2)CC1)Nc1ccccc1-c1ccccc1	-11	14%	-5.4	-3%	0	-8
O=C(CCc1ccccc1)NNC(=S)NCCc1ccccc1	-7	?	6.4	-4%	-7	-10
CCc1ccc2[nH]c(=O)c(C(c3nnnn3Cc3ccccc3)N3CCOCC3)cc2c1 (stereo not drawn)	1	3%	0.8	-6%	2	0
C[C@H](NS(=O)(=O)c1ccc(F)cc1)C(=O)OCC(=O)c1c(N)n(C)c(=O)n(C)c1=O	0	89%[15.4 µM]	-1.9	10%	3	19
[O-]/C(=C(\C(=S)Nc1ccc(SC(F)F)cc1)[n+]1cccc(CO)c1)c1ccc(Cl)s1	-6	2%[15.4 µM]	-2.2	-16%	-9	-13
CCOC(=O)C1=NOC2C3CC(C12)C1C(=O)N(CCc2ccc(OC)c(OC)c2)C(=O)C31 (stereo not drawn)	-6	-64%[inhibitor]	0.0	0%	-7	0
COC(=O)C1(Cc2ccc(O)c(CC3OC3(C)C)c2)OC(=O)C(O)=C1c1ccc(O)cc1 (stereo not drawn)	-6	/	8.2	-3%	5	-2
COc1c(C)cc(C(=O)C2CCCN(C(=O)c3cc(C)on3)C2)cc1C (stereo not drawn)	-3	8%	1.3	-11%	6	2
Cc1c(Cl)cccc1NC(=S)NCc1ccc(Cl)cc1	1	0%	-2.4	9%	1	6
O=C1CN(C(=O)COC(=O)c2cnc(Cl)c(Cl)c2)c2ccccc2N1	-8	-49%[inhibitor]	-4.3	-13%	/	-4
CC12COC3(C(=O)Nc4ccc5ccccc5c4)CC1CCC32C (stereo not drawn)	-8	16%	12	-3%	5	7
O=C(NC1CCCCCC1)C1CCN(C(=O)c2cccc(Cl)c2)CC1	-2	15%[15.4 µM]	-1.2	6%	6	-1
CN1CCN(c2nc(-c3ccncc3)nc3ccccc23)CC1	-33	0%	0.0	-4%	-2	-9
CC(C)c1ccc(NC(=S)NN2C(C)CCCC2C)cc1 (stereo not drawn)	0	?	-1.5	0%	0	-21
C(#CC1CCCCC1)c1ccc2c(c1)COc1c3ccccc3nn1-2	5	/	0.6	4%	2	-1
CC(C)C(C)(C#N)NC(=O)CSc1nnc(C(F)(F)F)n1C (stereo not drawn)	-2	6%	-1.2	6%	-6	-1
Cc1cc2c(cc1S(=O)(=O)C(C)CC(=O)NCc1ccco1)OCC(=O)N2 (stereo not drawn)	-4	0%	-16	6%	-5	5
CN1CCN(CCc2nc3cc(NC(=O)COc4ccccc4)ccc3n2C)CC1	-22	-2%	-0.5	16%	5	6

Bioassay records (PubChem)
